Screening data as filed in PubChem.
PINK1 modulator – A Quantitative High throughput Screen to Identify Chemical Modulators of PINK1 Expression; PINK1 immunofluorescence, high-content cytometry, 24 h; Potency, µM (titrated, usually from 76.6 µM), for inactives: top-dose activation (PINK1 increase), actives largely listed as activators; 410,000 tested, 0.2% active; active = well fitted activation curve with a large enough effect; inconclusive = small, poorly fitted or top-dose-only effect; inactive = flat fitted curve, though single readings scatter; cell line not stated here;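 further: potency means the concentration at half of the fitted maximal effect; % of control where 0% means no effect; nearly all actives have a fitted effect of over 65% in size; a mitochondrial uncoupler was the plate control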
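Cells are seeded, rested 12 hours, then given compound at five concentrations or DMSO for 24 hours. After fixation, blocking and antibody staining, PINK1 amount and mitochondrial localization are scored; CCCP serves as control.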
TRPML1 blocker – qHTS for Inhibitors of the Human Mucolipin Transient Receptor Potential 1 (TRPML1); Mucolipin-1 (Homo sapiens), Q9GZU1; TRPML1-inducible cells, Ca2+ dye fluorescence, FDSS; hits give low values; inhibition of EC80 agonist-evoked calcium signal; activity change, negative = inhibition, % (test concentration not listed); 390,000 tested, 0.02% active; AID 624415, 2012; in the data active means activity change below about -50%; inconclusive means about -30% to -50%; inactive means above about -30%;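 further: stimulus is agonist 54-4 at its EC80 concentration; on the % scale 0 is the no-effect control and ±100 the full control effect; compound concentration not given in the record; the text of the record puts the active cut at -80%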
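TRPML1-DL cells, Tet-induced overnight (~16 h, 37 °C) at 1,500 cells/well, were loaded with Ca8 no-wash dye plus quencher for 45-90 min at room temperature. Compounds were pinned during FDSS kinetic reading; agonist 54-4 at EC80 (4 uM final) then added.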
D2 ag – Beta-Arrestin HTS for Positive Allosteric Modulators of the Human D2 Dopamine Receptor: Agonists. 360,000 tested, 0.084% active. AID 624465, 2012. DiscoveRx PathHunter D2 beta-arrestin, luminescence, 90 min; 100% = 57 uM dopamine signal. activation, % (concentration not given with the values); in the data active = activation above about 40%; inconclusive = about 15% to 40%; inactive = below about 15%; further: compound concentration not given in the record; the text of the record calls up to 30% inactive
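DiscoveRx PathHunter D2 beta-arrestin cells (2,100/well) attached overnight, then compound-stimulated 90 min at 37 C in HBSS/10 mM HEPES/0.1% Tween-20 buffer; beta-galactosidase complementation read by luminescence after 1 h at ambient temperature. Dopamine 57 uM final (EC100) as control.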
TRPML1 agonist – qHTS for Agonists of the Human Mucolipin Transient Receptor Potential 1 (TRPML1); Mucolipin-1 (Homo sapiens), Q9GZU1; TRPML1-expressing cells, Ca2+ dye fluorescence, FDSS; host cell line not named in the record; reference of the full effect not given here; activation, % (no concentration beside the values); 410,000 tested, 0.12% active; AID 624414, 2012; in the data active = activation above about 50%; inconclusive = about 30% to 50%; inactive = below about 30%; further: 0% is about no effect; the text of the record puts the active cut at 80%
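Cells: TRPML1-DL, 1X Tet inducer, ~16 h at 37 degrees C/5% CO2. Dye: ABD Ca8 no-wash + quencher, 45-90 min RT. Read: 10 s baseline, compound add, 110 s agonist phase; 54-4 EC80 (4uM final), 110 s antagonist phase.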
CtBP-E1A inh – qHTS Assay for Inhibitors of the CtBP/E1A Interaction | AID 651724, 2012 | CtBP / adenovirus E1A interaction (AlphaScreen) | AlphaScreen GST-E1A/His-CtBP binding, 1536-well; hits give low values; control for the full effect not named in the record | 340,000 tested, 0.49% active | activity change, % (concentration not given with the values); in the data active means activity change below about -65%; inconclusive means about -30% to -65%; inactive means above about -30%; further: on the % scale 0 is the no-effect control and ±100 the full control effect
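Homogeneous bead-based format: GST-tagged E1A captured on glutathione donor beads, His-tagged CtBP on nickel acceptor beads; compounds precede bead addition by 2 h at 37 °C.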
Six1-Eya2 blk – qHTS Assay for Inhibitors of the Six1/Eya2 Interaction; Homeobox protein SIX1 (Homo sapiens) + Protein phosphatase EYA2 (Homo sapiens), …; AlphaScreen GST-Six1/His-Eya2 binding, biochemical; hits give low values; control for the full effect not named in the record; activity change, % (no concentration beside the values); 360,000 tested, 0.56% active; in the data active = activity change below about -65%; inconclusive = about -30% to -65%; inactive = above about -30%; further: on the % scale 0 is the no-effect control and ±100 the full control effect; compound concentration not given in the record
Target sequence (O00167 whole entry, looked up): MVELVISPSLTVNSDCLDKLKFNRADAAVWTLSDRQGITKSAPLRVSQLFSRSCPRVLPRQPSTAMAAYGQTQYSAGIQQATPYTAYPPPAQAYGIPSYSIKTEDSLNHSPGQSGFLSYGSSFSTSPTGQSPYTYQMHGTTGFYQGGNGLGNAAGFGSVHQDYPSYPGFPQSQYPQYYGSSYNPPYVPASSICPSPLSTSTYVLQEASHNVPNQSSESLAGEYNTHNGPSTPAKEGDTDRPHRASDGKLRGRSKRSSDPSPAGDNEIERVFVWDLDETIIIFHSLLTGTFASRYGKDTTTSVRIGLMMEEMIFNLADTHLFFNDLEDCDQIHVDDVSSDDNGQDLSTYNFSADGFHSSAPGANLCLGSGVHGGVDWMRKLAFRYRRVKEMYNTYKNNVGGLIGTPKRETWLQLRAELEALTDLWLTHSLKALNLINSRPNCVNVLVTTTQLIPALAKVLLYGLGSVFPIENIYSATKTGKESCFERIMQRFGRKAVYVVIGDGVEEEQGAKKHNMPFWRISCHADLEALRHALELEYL
Target sequence (Q15475 whole entry, looked up): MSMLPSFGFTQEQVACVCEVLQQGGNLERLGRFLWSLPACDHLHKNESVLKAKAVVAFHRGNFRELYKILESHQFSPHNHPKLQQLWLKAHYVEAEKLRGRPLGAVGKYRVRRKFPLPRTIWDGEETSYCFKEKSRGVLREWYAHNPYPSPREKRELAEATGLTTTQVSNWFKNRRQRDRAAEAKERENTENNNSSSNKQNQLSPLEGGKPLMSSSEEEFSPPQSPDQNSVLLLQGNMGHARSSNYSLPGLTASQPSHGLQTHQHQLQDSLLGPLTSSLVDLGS
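Six1/Eya2 binding was read as AlphaScreen signal after compounds were pinned into GST-Six1 plus His-tagged Eya2 (5X stock 250/500 nM) in pH 8.0 Tris/NaCl/TCEP buffer, beads added, then incubated 1 h, 37 C, dark.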
Numbers without * were called inactive; ? = inconclusive; · = not tested or not shown; & = joins results of further samples; [ ] = dose if it differs, or a comment.

SMILES | PINK1 modulator | TRPML1 blocker | D2 ag | TRPML1 agonist | CtBP-E1A inh | Six1-Eya2 blk
COc1cccc(C2=CC(=O)C[C@H](c3ccc4c(c3)OCO4)C2)c1 | -0.2% | -12 | 1.3 | 0.5 | · | -10
Cc1ccc(C(=O)C(C)Oc2cccc(NC(=O)c3ccco3)c2)cc1 (stereo unspecified) | 0.2% | -2 | -1.2 | 0.8 | -5 | -16
CCN1CCN(S(=O)(=O)c2ccc(Cl)c(C(=O)N(C)Cc3ccc(F)cc3)c2)CC1 | -0.4% | 7 | -3.9 | -0.5 | 0 | 6
Cc1ccc2cccc(OCC(=O)N3CCc4ccccc43)c2n1 | 7.4% | -11 | -0.5 | -1.0 | -6 | 9
COc1ccc(S(=O)(=O)N2CCN(Cc3cccc(OC)c3)CC2)cc1 | -2.0% | -1 | 2.2 | 2.0 | · | 14
Cc1ccc(NC(=O)c2cnn(-c3ccccc3)c2C)c(C)c1 | -0.5% | 14 | -0.7 | -1.5 | 3 | 0
Cc1ccc(NC(=O)Cn2cc3c(n2)CCCC3)c(Cl)c1 | 0.9% | 13 | · | -0.5 | · | ·
COc1ccc(Cl)cc1NC(=O)NCc1ccco1 | -0.2% | -14 | -5.4 | 0.7 | · | -1
CCOC(=O)c1ccc(NC(=O)C2(c3ccccc3)CCOCC2)cc1 | -0.9% | -10 | -3.3 | 1.6 | -4 | 7
O=C(CN1CCc2ccccc21)NC(=O)NCc1ccccc1 | 0.8% | -2 | 1.4 | 1.2 | · | 4
CCCCNC(=O)CS(=O)Cc1nc(-c2ccc(C)cc2)oc1C (stereo unspecified) | -0.5% | 2 | -3.9 | -0.7 | 9 | -1
CN1CCN(c2ccccc2/C=N/NC(=O)c2cccnc2)CC1 | -0.1% | 0 | -2.1 | 1.3 | · | 5
N#Cc1ccc(Cn2c(=O)oc3ccccc32)cc1 | -0.8% | 0 | 0.5 | -1.2 | 11 | 3
COc1c(F)c(F)c(C(=O)O)c(Nc2ccc(C)cc2C)c1F | 2.0% | -8 | 3.2 | -0.6 | 2 | 1
CCOc1ccc(NC(=O)CCn2ccnc2)cc1 | -0.5% | -10 | 0.1 | -1.0 | 4 | 2
Cc1cc(NC(=O)CSc2nnc3ccc(-c4ccc(F)cc4)nn23)no1 | 1.4% | 14 | -0.6 | 0.0 | 1 | 6
CCCCn1c(=O)n(CC(=O)NCc2ccc(C)cc2)c(=O)c2c1nc(CO)n2CCC | 0.1% | -11 | -0.4 | -0.1 | 0 | -1
CSCc1ccc(C(=O)NC(C)c2cnn(-c3ccccn3)c2C)o1 (stereo unspecified) | 4.0% | 41 | -5.8 | 1.2 | 6 | -1
CN(C(=O)COC(=O)c1cccc(Cl)c1)C1CCS(=O)(=O)C1 (stereo unspecified) | 4.6% | 4 | 3.5 | -0.6 | · | 2
COc1ccc(NC(=S)NCCc2ccc(F)cc2)c(OC)c1 | -0.5% | 9 | -1.4 | 1.0 | 3 | -6
O=C(O)c1ccc(N2C(=O)c3[nH]nc(-c4ccccc4)c3C2c2cccc(F)c2)cc1 (stereo unspecified) | 0.6% | -8 | · | -0.1 | · | ·
Cc1ccc(C)c(NC(=O)Cn2cc(C(=O)c3ccc(Cl)cc3)c(=O)c3ccc(C)nc32)c1 | 1.0% | -7 | · | 0.9 | · | ·
CCCCc1cc(=O)oc2cc(OCC(=O)N3CCC(C(=O)O)(c4ccccc4)CC3)ccc12 | 1.3% | · | 6.6 | · | -26 | ?
CC1CCC(C(C)C)C(OC(=O)CSc2n[nH]c(=O)[nH]c2=O)C1 (stereo unspecified) | -15%[38.3 µM] | -7 | -2.8 | 1.7 | 7 | 0
Cc1cccc(-c2c3c(=O)n(C)c(=O)n(C)c3c3cccnn23)c1 | 2.3% | 37 | -0.3 | 3.4 | 0 | 2
CCOC1=C2[C@H](c3ccc(C)cc3)N(S(=O)(=O)c3ccc(C)cc3)C[C@H]2n2c(=O)n(-c3ccccc3)c(=O)n2C1 | 2.3% | -1 | -4.8 | -0.7 | 3 | -3
CCc1nnc2n1N(C(C)=O)C(c1ccc(C(C)(C)C)cc1)=C(C(C)=O)S2 | ? | 15 | · | 1.2 | · | ·
CC(=O)c1ccc(NC(=O)C(C)N(C)CC(=O)Nc2ccc(Cl)cc2)cc1 (stereo unspecified) | 5.5% | 22 | -6.0 | 0.8 | 0 | 0
COc1ccccc1NC(=O)CSc1ccc2nnc(-c3cccnc3)n2n1 | 1.0% | -16 | 0.3 | 0.0 | -77* | -70*
CCC(C)c1c(O)nc(SCC(=O)Nc2ccccc2)[nH]c1=O (stereo unspecified) | -1.5% | -4 | -3.5 | -0.7 | -1 | 5
COc1ccc(-c2nnc(SCc3cccnc3)o2)cc1 | -1.8% | -4 | -0.8 | 3.7 | -2 | 4
O=S(=O)(c1cccs1)N1CCN(CC(O)COc2cccc(Br)c2)CC1 (stereo unspecified) | -4.4% | 6 | 2.9 | -0.8 | 1 | -2
CCCCCCCOc1ccc(C2CC(=O)N(C)C2=O)cc1 (stereo unspecified) | 0.0% | -6 | 0.4 | 1.4 | 4 | 14
Cc1ccc(CN2CC(C(=O)Nc3cccc(C)n3)CC2=O)cc1 (stereo unspecified) | 1.3% | 19 | -0.5 | 0.3 | 0 | 6
COc1ccc(C(=O)CNC2=NCCC2)cc1 | 1.2% | 1 | -1.8 | -0.4 | 0 | 3
COc1ccc(C(C)=O)c(Oc2nc(CN3CCOCC3)nc3scc(-c4cccs4)c23)c1 | 2.7% | 5 | -1.7 | -0.4 | -1 | -3
CCOC(=O)c1cc(-c2sc(NC(=O)c3ccccc3)nc2C)n(CCO)n1 | 1.6% | -4 | 0.8 | 0.6 | -3 | -6
NNC(=O)COc1ccccc1F | -2.9% | 30 | 0.9 | 0.0 | 6 | 3
Cc1ccc(NC(=O)CSc2cn(CC(=O)N3CCCC3)c3ccccc23)cc1Cl | 1.1% | 8 | · | 1.0 | · | ·
Cc1ccc(S(=O)(=O)NCC(=O)OCC(=O)c2ccc(Cl)s2)cc1 | 1.3% | 3 | -3.9 | -1.1 | 14 | -1
CCOC(=O)C1=CN(c2cccc(F)c2)C=C(C(=O)OCC)C1c1cc(OC)c(O)c([N+](=O)[O-])c1 | -3.0%[38.3 µM] | -2 | -1.5 | 0.7 | 14 | ?
Cc1ccccc1NC(=O)CSc1nnc(C)c(=O)[nH]1 | 0.7%&1.6% | 57&-11 | -3.3 | 0.0&-0.5 | -1 | 4
CCOC(=O)c1noc2ncn(CC(=O)Nc3ccccc3OC)c(=O)c12 | -0.8% | -10 | · | 0.7 | · | ·
c1cc2c(cc1NC1CCCCCC1)OCO2 | 5.0% | 32 | -2.2 | -0.4 | -4 | -13
Cc1ccc(C(=O)N/C(=C\c2cccc([N+](=O)[O-])c2)C(=O)Nc2cccc(C(=O)O)c2)cc1 | 1.9% | 14 | -2.9 | -1.0 | 1 | -6
COc1ccc2cc(CCNC(=O)C(C)(C)C)c(=O)[nH]c2c1 | 0.9% | 13 | -2.2 | -0.1 | 2 | 3
CC(C)c1nnc(NC(=O)CSc2ncn[nH]2)s1 | -1.5% | -6 | 0.1 | -0.3 | 3 | 15
O=c1c2ccccc2nc(/C=C/c2c[nH]c3ccccc23)n1CCO | -3.6% | 29 | 9.3 | 0.2 | 4 | -16
O=C(Nc1ccc(C(=O)N2CCCC2)cc1)c1ccccc1F | 7.0%[38.3 µM] | 13 | 1.0 | 2.5 | 9 | 5
COc1ccccc1NC(=O)c1c(NC(=O)CCC(=O)O)sc2c1CCCCC2 | -1.0% | 10 | -3.4 | -0.2 | -10 | -1
COc1ncnc2sc3c(c12)CCCC3 | -4.1%[38.3 µM] | 9 | -0.3 | 0.0 | 8 | 2
CCOC(CNc1c([N+](=O)[O-])c(=O)n(C)c(=O)n1C)OCC | 5.0% | -24 | 2.0 | 0.8 | -9 | 12
Cc1cc2ncn(C(=O)N3CCOCC3)c2cc1C | 0.7% | 3 | -2.1 | -0.6 | -1 | 0
COC(=O)C(C)N(C(=O)c1cccc2ccccc12)c1c(C)cccc1C (stereo unspecified) | -0.5%[38.3 µM] | 57 | -3.5 | 3.9 | -8 | -3
COC(=O)C(O)(CC(=O)Nc1ccc(C)c(F)c1)C(F)(F)F (stereo unspecified) | -0.8% | -14 | -3.1 | 0.0 | -25 | -6
CCO/C(C)=C1/SC(=S)NC1=O | 3.0% | -11 | -4.9 | 1.3 | 3 | 0
COc1ccc(OC)c(S(=O)(=O)N2CCC(C(=O)NCCC3=CCCCC3)CC2)c1 | -1.3% | -9 | 0.1 | 1.8 | -9 | 3
Cc1ccccc1N=Nc1c(O)[nH]c2ccccc12 | 1.2% | 15 | -7.7 | 1.3 | 2 | 5
CC1=C(C(=O)N(C)C)CC(CC(=O)NC2CCCCC2)C(=O)N1Cc1ccc(C(C)(C)C)cc1 (stereo unspecified) | 0.4% | -3 | -7.5 | -0.6 | 4 | 1
O=C1c2ccccc2NC(c2ccc([N+](=O)[O-])cc2)N1O (stereo unspecified) | -2.7% | -8 | 6.2 | 2.5 | 0 | -1
Cc1c(C(=O)NN)nc2ccccn12 | -0.9% | 18 | ? | 0.0 | · | 10
COc1ccc(N(C(C)C(=O)N2CCCC2)S(C)(=O)=O)cc1 (stereo unspecified) | -0.6% | -2 | 2.4 | -0.8 | · | 0
O=C1NCCOC(=O)[C@H](Cc2ccc(F)cc2)C/C=C\C[C@@H]1CC(=O)N(CCO)Cc1ccccc1 | 3.3% | 4 | 0.1 | -0.3 | 0 | 9

4 structures out of the list, ordered by length of the SMILES, lowest first.
SMILES | PINK1 modulator | TRPML1 blocker | D2 ag | TRPML1 agonist | CtBP-E1A inh | Six1-Eya2 blk
Cc1c(C(=O)NN)nc2ccccn12 | -0.9% | 18 | ? | 0.0 | · | 10
Cc1ccccc1N=Nc1c(O)[nH]c2ccccc12 | 1.2% | 15 | -7.7 | 1.3 | 2 | 5
COc1ccc(N(C(C)C(=O)N2CCCC2)S(C)(=O)=O)cc1 (stereo unspecified) | -0.6% | -2 | 2.4 | -0.8 | · | 0
O=C1NCCOC(=O)[C@H](Cc2ccc(F)cc2)C/C=C\C[C@@H]1CC(=O)N(CCO)Cc1ccccc1 | 3.3% | 4 | 0.1 | -0.3 | 0 | 9
